2A StopGo – lowers the luciferase signal of an FMDV 2A StopGo reporter | human cells with a luciferase reporter of 2A StopGo recoding; control for the full effect not named in the record | 410,000 tested, 1.2% active | Potency, µM (highest dose often 57.9 µM), for inactives: top-dose signal change, negative = less light; active = well fitted falling curve with a large enough effect; inconclusive = small, poorly fitted or top-dose-only effect; inactive = no such curve, though single readings can be large or run the other way; tested in HEK293T cells; note: nearly all actives have a fitted effect of over 45% in size; luciferase light after 4 h
RE007 growth inh – less growth of the S. pombe RE007 Vpr strain | S. pombe RE007 Vpr strain, BacTiter-Glo ATP luminescence, 24 h; control for the full effect not named in the record | 360,000 tested, 0.21% active | AID 651644 | Potency, µM (doses to about 92.2 µM), for inactives: top-dose activity change, negative = less growth; active = well fitted falling curve with a large enough effect; inconclusive = small, poorly fitted or top-dose-only effect; inactive = no such curve, though single readings can be large or run the other way;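 note: nearly all actives have a fitted effect of over 50% in size; the assay follows cell death caused by Vpr and the record does not say whether a fall means rescue or toxicity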
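Fission yeast strain RE007, carrying one chromosomally integrated HIV-1 vpr copy, was seeded at OD 0.01 in PMG+AL medium with 23 nL pinned compound. After 24 h at 30 °C and 99% humidity, viability was read by BacTiter-Glo luminescence.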
Starred values were filed as active, the others as inactive; ? = inconclusive; [ ] = dose if it differs, or a comment. % is set by controls: 0 for no effect and ±100 for the full control effect; potency is the fitted concentration of half-maximal effect.

Results follow in this order: 2A StopGo	RE007 growth inh
1	COCCN1C[C@@H](CO)O[C@@H](n2cnc3c(NC(C)C)ncnc32)C1
  -4%	-4%
2	CCCCNC(=O)c1nc(-c2ccncc2)oc1-c1ccccc1
  -17%	-21%
3	CCC(C(=O)NCc1ccccc1)n1c(C2CCN(C(C)=O)CC2)nc2ccccc21 (stereo not drawn)
  -9%	-12%
4	COc1ccc(OC)c(NS(=O)(=O)c2ccc3[nH]c(=O)[nH]c3c2)c1
  -18%	-11%
5	C[C@H](NC(=O)[C@@H]1CCCN1C(=O)[C@@H]1CCCN1C(=O)c1cccc(Cl)c1)c1ccccc1
  -16%	8%
6	C[C@@H]1CN([C@@H](C)CO)C(=O)CCCn2nncc2CO[C@@H]1CN(C)C(=O)c1ccncc1
  0%	0%
7	Cc1cc(C)cc(C(O)c2ncc(-c3ccccc3C(F)(F)F)[nH]2)c1 (stereo not drawn)
  18%	-7%
8	CC(C)(C)c1ccc(C(O)c2ncc(-c3ccc(F)cc3)[nH]2)cc1 (stereo not drawn)
  0%	-19%
9	CN1OC[C@@H]2CN[C@H](c3ccccc3Br)C[C@@H]21
  6%	15%
10	Cc1cnc(C)c(Nc2nc(C(N)CCc3ccccc3)cs2)n1 (stereo not drawn)
  -12%	0%[18.4 µM]
11	COc1cc(C(=O)NCCC(=O)NCc2cccs2)cc(OC)c1OC
  -18%	-13%
12	O=C1Cc2ccccc2C(=O)N1
  -24%	-14%
13	CC(C)(C)C(=O)N1Cc2cc(N3CCCCC3)ccc2-n2nncc2C1
  -15%	-14%
14	Nc1sccc1C(=O)NC1CC1
  -8%	1%
15	CCOC(=O)N1CCN(C(=O)C[C@@H]2C[C@@]3(C(=O)OC)CCCCC=C3N(CCC3=CCCCC3)C2=O)CC1
  -13%	7%
16	CCOC(=O)N1CCN(C(=O)C[C@@H]2C[C@@]3(C(=O)OCC)CCC=C3N(Cc3ccc(Cl)cc3Cl)C2=O)CC1
  -26%	6%
17	COc1ccc(Cl)c(-c2cc(C(=O)NCc3ccc(C(F)(F)F)cc3)[nH]n2)c1
  -18%	7%
18	Nc1[nH]c(C(=O)c2ccccc2)c(-c2ccc(Cl)cc2Cl)c1C(=O)c1ccc(Br)cc1
  -22%	-2%
19	CC1(C)CC(=O)C=C(C#CC2(O)CCCCC2)C1
  ?	0%
20	CSc1ccc(CN2CCC(C)(Oc3ccc(F)cc3)C2)cc1 (stereo not drawn)
  -17%	-18%
21	O=C(Nc1cccc(OC(F)(F)F)c1)C1Cc2c(-c3ccc4c(c3)OCO4)ccnc2O1 (stereo not drawn)
  -9%	-22%
22	Fc1ccc(-c2nc3ccc(Br)cn3c2Cc2ccccc2)cc1
  -2%	1%
23	CCc1nc2ccc(C(=O)N(CC)CCN(C)C)cn2c1N(C)C(=O)C1CCCCC1
  -10%	-3%[18.4 µM]
24	O=C(O)C(=O)Nc1ncn[nH]1
  0%	-6%
25	CCCCC(=O)N(C)c1c(C)nc2ccc(C(=O)N3CCN(C(=O)c4ccco4)CC3)cn12
  -12%	-5%
26	CCCCNS(=O)(=O)c1cccc(NC(=O)[C@H]2C[C@H](O)[C@@H](CO)O2)c1
  35%[activator]	7%
27	O=C(Cc1cccc(NC(=O)C2CCCN(C(=O)C3CC3)C2)c1)Nc1cccc(C(=O)N2CCOCC2)c1 (stereo not drawn)
  -3%	-1%
28	CC(C)CC(N)c1csc(Nc2cnccn2)n1 (stereo not drawn)
  7%	-5%
29	COC(=O)C[C@H]1c2cc(F)ccc2S(=O)(=O)N1Cc1ccccc1
  3%	7%
30	Oc1ccc(C[C@H]2CNC(=S)N2CC2CCCN2C[C@H](Cc2ccc(O)cc2)N2C[C@H](Cc3ccccc3)N(CC3CCCCCC3)C2=S)cc1 (stereo partly drawn)
  -25%	-16%

Five structures out of the list, ordered by count of non-hydrogen atoms, ascending.
Results follow in this order: 2A StopGo	RE007 growth inh
19	CC1(C)CC(=O)C=C(C#CC2(O)CCCCC2)C1
  ?	0%
8	CC(C)(C)c1ccc(C(O)c2ncc(-c3ccc(F)cc3)[nH]2)cc1 (stereo not drawn)
  0%	-19%
17	COc1ccc(Cl)c(-c2cc(C(=O)NCc3ccc(C(F)(F)F)cc3)[nH]n2)c1
  -18%	7%
3	CCC(C(=O)NCc1ccccc1)n1c(C2CCN(C(C)=O)CC2)nc2ccccc21 (stereo not drawn)
  -9%	-12%
5	C[C@H](NC(=O)[C@@H]1CCCN1C(=O)[C@@H]1CCCN1C(=O)c1cccc(Cl)c1)c1ccccc1
  -16%	8%

The list goes on:
Results follow in this order: 2A StopGo	RE007 growth inh
31	Cc1cc(C)c2cc(C#N)c(NCCCNC(=O)c3cccnc3)nc2c1
  ?	-10%
32	CC(C)C[C@@H]1Cc2[nH][nH]c(=O)c2[C@H](C)O1
  -7%	-5%
33	CC(C)n1c(=O)c2ccccc2n1Cc1cn(Cc2cccnc2)nn1
  -5%	-7%
34	CS(=O)(=O)N1CCC(Oc2cccc(C(=O)NCCCC3CCCC3)c2)CC1
  -23%	-5%
35	CCCS(=O)(=O)NC(=O)C1(C)CCCN(C(=O)CSc2ccccc2)C1 (stereo not drawn)
  -1%	-3%
36	CC(=O)Nc1nc2c(F)cccc2s1
  -7%	20%
37	CCOC(=O)N1CCN(C(=O)C[C@@H]2C[C@@]3(C(=O)OCC)CCCC=C3N(Cc3ccco3)C2=O)CC1
  -10%	-3%
38	CS(=O)(=O)c1ccc(C2=C(CNC(=O)c3cccs3)[C@H]3CC[C@@H](C2)N3CCOc2ccccc2)cc1
  -14%	-25%
39	CC(C)[C@H](NC(=O)OC(C)(C)C)c1cc(C(=O)N[C@@H](C)c2ccccc2)c(N)s1
  -17%	-5%
40	COc1ccc(NC(=O)[C@@H]2CC=C[C@@H]3CCN(C4CCCCC4)C(=O)[C@@H]32)cc1
  21%	11%
41	CCOC(=O)[C@]12CCCC=C1N(Cc1ccc3c(c1)OCO3)C(=O)[C@H](CC(=O)NCCCCc1ccccc1)C2
  ?	1%
42	C[C@H]1CNC(=O)c2c(C(=O)NC3CCN(C(=O)OC(C)(C)C)CC3)ncn21
  -6%	16%
43	O=S1c2ccccc2-c2ccccc21
  -5%	-16%
44	CN(C)CC(=O)Nc1ccc2c(c1)[C@H]1C[C@H](CC(=O)NCc3ccc4c(c3)OCO4)O[C@H](CO)[C@H]1O2
  -20%	13%
45	CCc1ccc(CN2CCC(n3nccc3NC(=O)c3ccccc3OC)CC2)o1
  -29%	-2%
46	CCN1C[C@@H]2[C@@H]3C(=O)N(C)C(=O)[C@@H]3[C@](C)(C1=O)N2C(=O)c1ccccc1
  -13%	-8%
47	CN(CC1COc2ccccc2O1)C(=O)CCNS(=O)(=O)c1ccc(F)c(Cl)c1 (stereo not drawn)
  16%	-8%
48	O=S(=O)(NC1CCc2ccccc21)c1ccccc1 (stereo not drawn)
  13%	0%
49	COC(=O)[C@]12CCCCC=C1N(Cc1cccc3ccccc13)C(=O)[C@H](CC(=O)NCCC(C)C)C2
  -26%	4%
50	CC1(C(=O)NCC2CC2)CCN1C(=O)C1(c2ccc(Cl)cc2)CC1 (stereo not drawn)
  -11%	3%
51	COc1cccc(CN2CC(C(=O)N3CCSCC3)CCC2=O)c1 (stereo not drawn)
  -16%	7%
52	COc1ccccc1-c1cnc(C(O)c2c(C)cccc2C)[nH]1 (stereo not drawn)
  -6%	-18%[18.4 µM]
53	N#Cc1sc(=O)[nH]c1Cl
  -13%	-16%
54	Nc1ncnc2c1ccn2[C@H]1CN(Cc2ccc3c(c2)OCO3)C[C@@H](CO)O1
  ?	-13%
55	C[C@@H]1CN([C@@H](C)CO)C(=O)CCCn2nncc2CO[C@H]1CN(C)S(=O)(=O)c1ccc(-c2ccccc2)cc1
  ?	15%
56	CCOC(=O)C1(C)CCCN1C(=O)c1ccc(C)cc1 (stereo not drawn)
  0%	-11%
57	CCCCN1C(=O)C(CC(=O)NC2CCCCC2)CC(C(=O)N(C)C)=C1C (stereo not drawn)
  0%	?
58	CC(=O)Nc1ccc(CN(C)c2c(C)nc3ccc(C(=O)N(C)Cc4ccccc4)cn23)cc1
  -17%	7%[18.4 µM]
59	CC(C)n1nnnc1C1c2ccccc2C(=O)N1C1CC1 (stereo not drawn)
  -5%	0%
60	CC(C)(C)NC(=O)C(c1ccncc1)n1c(-c2ccc(C(F)(F)F)cc2)nc2ccccc21 (stereo not drawn)
  19%	?
61	Cc1ccc(Cn2cc(CN3CC(N4CCCCC4)CS3(=O)=O)nn2)cc1 (stereo not drawn)
  -25%	6%
62	O=C1CN(CN2CCCCC2)C(=O)CN1CN1CCCCC1
  10%	11%[18.4 µM]
63	O=C(Cn1cc(COc2ccc(Cl)c(Cl)c2)nn1)NS(=O)(=O)c1ccccc1C(F)(F)F
  -11%	8%
64	OC(c1ccc(-c2ccccc2)cc1)c1ncc(-c2ccccc2F)[nH]1 (stereo not drawn)
  22%	-16%
65	CC(C)=CCCC(C)=CCN1C(=O)CN(C)C1=O
  -10%	2%
66	CC(O)(c1cccnc1)c1nc(-c2ccc3c(c2)OCO3)cs1 (stereo not drawn)
  -27%	93%
67	C[C@@H]1CN([C@H](C)CO)S(=O)(=O)c2ccc(C#Cc3cccc(F)c3)cc2O[C@@H]1CN(C)C(=O)CN1CCOCC1
  46%[activator]	6%
68	O=C(NCC1CC1)C1(C(F)(F)F)CC(CCCO)CCCO1 (stereo not drawn)
  -1%	-21%
69	CCc1nc2ccc(C(=O)Nc3cc(-c4ccccc4)ccc3OC)cn2c1N(CCN(C)C)CC1CC1
  -12%	-1%
70	CC1(C(=O)Nc2ccc3[nH]ncc3c2)CCN1C(=O)CCc1ccccc1 (stereo not drawn)
  -23%	7%
71	COc1ccc(-c2oc3c(c2C#CC2(O)CCCCC2)C(OC(C)=O)CCC3)cc1 (stereo not drawn)
  3%	12%
72	COc1ccc2oc3cc(NCCN(C)C)ccc3c(=O)c2c1
  -15%	-22%
73	N#Cc1ccc(OCC(=O)Nc2cc(S(=O)(=O)N3CCOCC3)ccc2N2CCCC2)cc1
  -3%	-1%
74	CCOC(=O)[C@]12CCC=C1N(Cc1ccco1)C(=O)[C@H](CC(=O)NCCCOC)C2
  -12%	2%
75	CCOc1ccc(Cl)cc1-c1cc(C(=O)Nc2ccc(OC)nc2)[nH]n1
  -23%	14%
76	CCOc1ccccc1N=C1SCC(C)N1C(=O)C1CCN(c2ncnc3sc(C)c(C)c23)CC1 (stereo not drawn)
  ?	-7%
77	C=CCN(C/C(=N\O)c1sc(C(=O)OCC)nc1C)c1cccc(Br)c1
  ?	0%
78	CC1(C(=O)NS(=O)(=O)c2ccc(Cl)cc2)CCN1C(=O)C1CCCCC1 (stereo not drawn)
  -6%	-10%
79	CCCS(=O)(=O)NC(=O)C1(C)CCCN(C(=O)c2c(C)noc2C)C1 (stereo not drawn)
  -16%	3%
80	O=C(/C=C/[C@H]1O[C@@H](n2ccc(=O)[nH]c2=O)[C@H](O)[C@@H]1O)NCc1ccc2c(c1)OCO2
  -21%	0%
81	COc1ccc(-c2ccc3oc(-c4ccc(OC)cc4)c(-c4cc(OC)c(OC)c(OC)c4)c3c2)cc1
  -15%	4%
82	COc1cc(C)ccc1S(=O)(=O)NC(=O)C1(C)CCN1C(=O)COc1ccc(Cl)cc1 (stereo not drawn)
  -11%	13%
83	Cc1ccc(NCN2C(=O)c3ccccc3C2=O)cc1Cl
  0%	-9%
84	O=C(C[C@H]1C[C@H]2c3cc(NC(=O)CC4CC4)ccc3O[C@H]2[C@H](CO)O1)NCc1ccccc1F
  -17%	5%
85	CCOC(=O)C1=C(C)N(CCC(=O)O)C(=O)NC1c1ccccc1Cl (stereo not drawn)
  -5%	15%
86	CN1CCC[C@H]1CCNc1ccc2c(=O)c3ccccc3n(C)c2c1
  50%[activator]	?
87	CC(C)(C)OC(=O)C(Oc1ccccc1[N+](=O)[O-])C(=O)OC(C)(C)C
  -12%	-15%
88	CN(C)c1ccc(-c2ccnc3c2CC(C)(C(=O)Nc2ccc(Cl)cc2)O3)cc1 (stereo not drawn)
  -9%	-9%
89	CCOC(=O)CN1CCC(C2(c3cc4ccccc4[nH]3)OCCO2)CC1
  -16%	6%
90	O=C(Nc1cccc(C(=O)Nc2ccccc2C(=O)O)c1)c1cccc(Cl)c1
  -62%	17%

(cont.)
Results follow in this order: 2A StopGo	RE007 growth inh
91	O=C(NC(CC(=O)N1CCN(c2ccccc2)CC1)c1ccccc1)c1ccccc1 (stereo not drawn)
  -5%	0%
92	CNc1cccc(-c2cccc(O)c2)n1
  45%[activator]	0%
93	COc1ccc(OC)c(NC(=O)c2cccc(NC(=O)c3ccco3)c2)c1
  ?	-1%
94	Cc1cn([C@H]2C[C@H](O)[C@@H](/C=C/C(=O)NCc3ccc4c(c3)OCO4)O2)c(=O)[nH]c1=O
  -15%	9%
95	NS(=O)(=O)c1ccc(CCNC(=O)COC(=O)Cc2ccc(Cl)cc2)cc1
  -24%	-8%
96	O=C1NC[C@H](Cc2ccc(O)cc2)N(C[C@@H]2CCCN2C[C@H](Cc2ccccc2)N2C[C@H](Cc3ccccc3)N(CC3CCCCCC3)C(=O)C2=O)C1=O
  32%[activator]	-6%
97	Cc1cccc(C)c1NC(=O)C(c1ccncc1)N1CCN(C)CC1 (stereo not drawn)
  -7%	5%
98	OC1c2c(F)cccc2N=C2CCCCN21 (stereo not drawn)
  0%	6%
99	CCCCNC(=O)C1(C)CCN1C(=O)c1c(F)ccc(C)c1F (stereo not drawn)
  -7%	16%[18.4 µM]
100	COc1ccc(CNC(=O)C2(C)Cc3c(-c4cccc(NC(C)=O)c4)ccnc3O2)cc1OC (stereo not drawn)
  -3%	-3%[18.4 µM]

This is a subset; count on the stated rates, not on these rows.
